# From PubChem
# hNpr1 antagonist – antagonists of human natriuretic peptide receptor Npr1; 76,000 tested, 1.6% active; Potency, µM (doses to about 46.3 µM), without a hit: at the highest dose activity change, negative = inhibition, most hits filed as inhibitors; AID 1347048; HEK293 hNpr1 GloSensor cGMP, ANP-stimulated luminescence; active = well fitted inhibition curve with a large enough effect; inconclusive = small, poorly fitted or top-dose-only effect; inactive = no such curve, though single readings can be large or run the other way;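 note: nearly all actives have a fitted effect of over 60% in size; nearly all hits also lower the signal before the agonist is added; a reference antagonist and vehicle were the controls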
# Target sequence (P16066 whole entry, looked up): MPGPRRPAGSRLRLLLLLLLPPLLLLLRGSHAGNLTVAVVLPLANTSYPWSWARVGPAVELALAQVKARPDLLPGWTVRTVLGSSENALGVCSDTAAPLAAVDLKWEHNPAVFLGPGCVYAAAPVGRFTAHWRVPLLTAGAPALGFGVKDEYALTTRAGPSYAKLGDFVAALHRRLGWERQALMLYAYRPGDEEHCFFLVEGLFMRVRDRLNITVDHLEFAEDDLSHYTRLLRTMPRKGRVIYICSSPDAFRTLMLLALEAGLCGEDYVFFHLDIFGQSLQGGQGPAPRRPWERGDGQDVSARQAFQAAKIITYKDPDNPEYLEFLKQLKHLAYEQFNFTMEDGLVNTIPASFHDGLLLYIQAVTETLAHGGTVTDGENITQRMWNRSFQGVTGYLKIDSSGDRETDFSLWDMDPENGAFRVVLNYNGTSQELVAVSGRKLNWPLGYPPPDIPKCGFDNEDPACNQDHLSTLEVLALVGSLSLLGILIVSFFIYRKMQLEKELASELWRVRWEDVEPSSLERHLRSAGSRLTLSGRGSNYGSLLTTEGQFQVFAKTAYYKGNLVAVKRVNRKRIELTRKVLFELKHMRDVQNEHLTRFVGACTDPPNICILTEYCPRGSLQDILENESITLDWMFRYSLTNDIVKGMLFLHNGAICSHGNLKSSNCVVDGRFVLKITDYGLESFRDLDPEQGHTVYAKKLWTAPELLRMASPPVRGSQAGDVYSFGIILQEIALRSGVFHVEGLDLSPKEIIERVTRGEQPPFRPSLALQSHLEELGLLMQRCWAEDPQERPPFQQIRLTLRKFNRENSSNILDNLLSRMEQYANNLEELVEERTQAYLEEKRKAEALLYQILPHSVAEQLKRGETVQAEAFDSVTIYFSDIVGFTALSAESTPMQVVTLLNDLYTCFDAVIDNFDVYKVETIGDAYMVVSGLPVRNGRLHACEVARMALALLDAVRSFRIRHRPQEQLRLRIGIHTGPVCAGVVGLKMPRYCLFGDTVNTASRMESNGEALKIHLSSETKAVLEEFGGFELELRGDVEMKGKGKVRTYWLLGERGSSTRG
#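 Compound pre-incubated 30 min at room temperature on GloSensor-loaded HEK293 cells stably carrying hNpr1 and the pGS-40F cGMP biosensor. Stimulation uses hNppA at 0.1 nM final; luminescence is taken at baseline and 20 min post-agonist.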
# * = called active by the depositor; ? = inconclusive; & = joins results of further samples; [ ] = dose if it differs, or a comment. % is set by controls: 0 for no effect and ±100 for the full control effect; potency is the fitted concentration of half-maximal effect.
SMILES,hNpr1 antagonist
Cc1cccc(O[C@H]2COCCN(Cc3ccccn3)C2)n1,-0.8%[70.6 µM]
O=C(NC1CC1)C1CN(Cc2ccccc2)C(=O)N1 (configuration not stated),0.0%[70.6 µM]
CN(Cc1cncs1)Cc1ccccc1C(F)(F)F,0.0%[70.6 µM]
COCCN1C(=O)CCc2cc(NC(=O)c3ccc(C)cc3C)ccc21,0.0%
O=C(c1ccccc1F)N1CCC2(CC1)NC(=O)N(Cc1ccc(F)cc1)C2=O,-22.7%
O=C1CC2(CCN(Cc3cccc(O)c3)CC2)CN1Cc1ccc(F)c(F)c1,2.6%
CN(C)c1ncc2c(n1)C(C)(C(=O)Nc1ccccc1F)CCC2 (configuration not stated),-11.9%[70.6 µM]
CCN1CCC(N2CCCC(N3CCN(c4cccc(Cl)c4)CC3)C2)CC1 (configuration not stated),22.3%
COc1ccccc1OCC(=O)c1ccc2c(c1)N(CCCC(=O)N1CCOCC1)C(=O)CO2,-2.5%
COc1ccc(NC(=O)NC[C@H]2O[C@@H]3C[C@@H](CC(=O)N4CCC(F)(F)C4)O[C@@H]3[C@@H]2O)cc1,-1.8%
c1ccc(CC2CCOC3(CCN(Cc4ccncc4)CC3)C2)cc1 (configuration not stated),-14.5%
CN(Cc1cccc(OC(F)(F)F)c1)Cc1ccccc1C(F)(F)F,0.0%
Cc1ccc(CNC(=O)CC2Sc3ncccc3N(C)C2=O)cc1 (configuration not stated),-8.2%
COc1ccc(C2Cn3nnc(-c4noc(Cc5ccccc5C)n4)c3CO2)cc1 (configuration not stated),13.0%
Cc1ccc(C(=O)N(C)C2CCCc3ccccc32)cc1 (configuration not stated),-7.3%[70.6 µM]
O=C(CC1CCCC1)N1CC(c2noc(COc3ccccc3)n2)C1,-11.2%
Cc1cn2nc(C(=O)N3CCC(C)CC3)cc2c(N(C)Cc2ccccc2)n1,17.2%
Cc1ccc(C(=O)N2CCC3(CC2)NC(=O)N(c2ccccc2Cl)N3)cc1,-2.3%
CC(C)c1noc([C@@H]2C[C@H]3C(=O)NCCCCCCN(C(=O)CCc4ccccc4)[C@H]3C2)n1,-0.2%
Cc1noc(-c2ccn3c(CNC(=O)c4ccncc4)nnc3c2)n1,1.9%
Cc1noc(-c2cccc(OC3CN(C(=O)CN4C(=O)CCC4=O)C3)c2)n1,-7.6%
O=C(NCCc1ccccn1)[C@@H]1C[C@@H](c2ccc(F)cc2)N(Cc2ccccc2)C1,-0.9%[70.6 µM]
O=C(CCC1CCN(C(=O)c2ccccc2F)CC1)Nc1ccc(N2CCOCC2)cc1,-5.9%
COCCN1Cc2nc(Nc3ccc(F)c(Cl)c3)ccc2OCC1=O,-1.6%[70.6 µM]
CN1CCC(NC(=O)Cc2c[nH]c3ncc(-c4ccccc4)cc23)CC1,-16.0%[70.6 µM]
CCOC(=O)CCCOc1cccn2c(=O)c(-c3cc(C)n(-c4ccccc4C)n3)c(C)nc12,-12.9%
COc1cccc(C(=O)N2CCC(C(=O)N3CCc4nc[nH]c4C3)CC2)c1,4.8%
CN(C)CCCOCC1(C)COc2ccc(C(=O)Nc3ccc(F)c(Cl)c3)cc2N1 (configuration not stated),-13.0%[70.6 µM]
COc1cccc(N2C(=O)OCC23CCN(Cc2c[nH]c4ccccc24)C3)c1 (configuration not stated),2.7%[70.6 µM]
O=C1NCCOCCCN(C(=O)NCc2ccc(F)cc2)[C@H]2CCCC[C@@H]12,-1.8%
CCOc1ccc(NC(=O)c2ccc3c(c2)N(CC)C2CCCCCN2C3=O)cc1 (configuration not stated),-2.5%
O=C(NCCCn1ccnn1)c1cccc(S(=O)(=O)N2CCOCC2)c1,0.2%
Cc1ccc(-c2noc([C@@H]3C[C@H](NC(=O)CC(C)(C)CC(=O)O)CN3C)n2)cc1,4.5%[70.6 µM]
CCCCN1C(=O)C(CC(=O)NC2CC2)Sc2ncccc21 (configuration not stated),-0.5%
CCOCCOC1CCN(C(=O)c2sccc2C)CC1,1.0%
CCN(CC)C1CCOC2(CCN(C(=O)CCn3nc(C)cc3C)CC2)C1 (configuration not stated),-3.8%
CN1CCC(Oc2ccc(NC(=O)CCCc3ccccc3)cn2)CC1,-0.1%
CC(=O)Nc1ccc(CN2CCCC3(C2)NC(=O)c2ccccc2O3)cc1 (configuration not stated),-8.7%
O=C(c1cnccn1)N1CCC(N2C(=O)C(OCC3CC3)C23CCOCC3)CC1 (configuration not stated),-1.7%
O=C(CC1CCCCC1)NC1CCN(c2cn[nH]c(=O)c2)CC1,2.2%

# Shown with tabs: six of the compounds above.
Compound	hNpr1 antagonist
O=C(NCCCn1ccnn1)c1cccc(S(=O)(=O)N2CCOCC2)c1	0.2%
Cc1ccc(-c2noc([C@@H]3C[C@H](NC(=O)CC(C)(C)CC(=O)O)CN3C)n2)cc1	4.5%[70.6 µM]
CCCCN1C(=O)C(CC(=O)NC2CC2)Sc2ncccc21 (configuration not stated)	-0.5%
CCOCCOC1CCN(C(=O)c2sccc2C)CC1	1.0%
CCN(CC)C1CCOC2(CCN(C(=O)CCn3nc(C)cc3C)CC2)C1 (configuration not stated)	-3.8%
CN1CCC(Oc2ccc(NC(=O)CCCc3ccccc3)cn2)CC1	-0.1%

# The list continues.
SMILES,hNpr1 antagonist
CNC(=O)c1cc[nH]c1C1CCCN(C(=O)CCc2cc(OC)no2)C1 (configuration not stated),-2.4%
CN1C[C@H](O)C[C@H]1c1nnc2n1CCN(C(=O)CC1CCCC1)CC2,-1.7%
O=C(NCCc1ccncc1)C1CN(C(=O)c2c(F)cccc2F)CC12CCOCC2 (configuration not stated),-1.1%
CCOc1cccc(CN2CCC(Oc3ccc(-c4noc(C5CC5)n4)cc3)C2)c1 (configuration not stated),?
CN(C)c1cccc(C(=O)NC2CCN(c3cnn(C)c(=O)c3)CC2)c1,2.7%
O=C(CC1CCCC1)N1CCN(Cc2ccc(=O)n(CC3CC3)c2)CC1,-28.5%
COCc1nc(CCNC(=O)C2CCN(S(=O)(=O)N3CCC(C)CC3)CC2)no1,6.0%
COc1ccc(CCc2nc(NC(=O)Cn3nc4c(cc3=O)CCCCC4)n[nH]2)cc1,-6.5%
COCC(=O)N1CCc2oc(C)c(C(=O)N(C)C)c2C1,0.6%
Nc1ncc(C(=O)N[C@@H]2CC[C@@H](N)C2)c(-c2ccccc2)n1,7.4%
CC(C)N1C(=O)CO[C@H]2CN(C(=O)c3cccnc3)C[C@H]21,-1.0%[70.6 µM]
Cc1noc([C@@H]2C[C@H](NC(=O)c3ccc(-c4ccccc4)cc3)CN2C)n1,1.4%[70.6 µM]
O=C(COc1ccccc1)NCc1nnc2ccc(-c3ccc(Cl)cc3)nn12,-1.1%
Cc1nn(-c2ccc(C(C)C)cc2)c(C)c1[C@@H]1C=C[C@@H](NC(=S)NCC(C)C)C1,28.2µM*
COc1ccc(OCc2nc(C3CN(C(=O)c4sccc4C)C3)no2)cc1,-7.5%
COc1cccc(CN(C)Cc2ccccc2C(F)(F)F)c1,25.5%[70.6 µM]
O=C1NCCOCCN(C(=O)COCc2ccccc2)[C@H]2CCC[C@@H]12,2.0%
COc1ccc(-c2nnc3ccc(N4C[C@@H](C)O[C@@H](C)C4)nn23)nc1,3.1%[70.6 µM]
CCn1cc(S(=O)(=O)N2CCC3(CC2)CN(C(C)=O)CC3COC)cn1 (configuration not stated),-12.8%
COc1ccc(-n2cnc3cccnc32)cc1,12.6%[70.6 µM]
CC(=O)c1ccc(NC(=O)O[C@@H]2CO[C@H]3[C@@H]2OC[C@@H]3n2nnnc2SCc2ccco2)cc1,-1.3%
O=C(c1ccc(Cl)nc1)N1CCC(c2nn(Cc3ccccc3)c(=O)[nH]2)CC1,0.0%&0.0%
CCN(CC)C(=O)C1CCN(C(=O)N2CC3CC(C2)[C@H]2CCCC(=O)N2C3)CC1 (some centres not stated),1.3%
Cc1ccc(-c2cc(N3CCCN(C(=O)c4ccc(N(C)C)cc4)CC3)n[nH]2)cc1C,-26.0%
Cc1ccc(NC(=O)N2CCCC2c2nncn2C2CCCC2)c(C)c1 (configuration not stated),2.7%
Cc1cccc(NC(=O)N2CCCC(Cn3c(C4CC4)nc4cccnc43)C2)c1C (configuration not stated),3.3%
c1cc(CN2CCNc3cc(-c4ccsc4)ncc3C2)ccn1,3.5%[70.6 µM]
CS(=O)(=O)N1CC[C@@H]2C(=O)NCCCCCCN(Cc3ccncc3)[C@@H]2C1,-2.9%
Cc1noc(C)c1C(=O)N1CCC2(CC1)NCCc1c2[nH]c2ccccc12,-2.9%
COc1cccn(CC(=O)N(C)CCn2nc(C)cc2C)c1=O,-0.9%
CCNC(=O)N1CCC(c2noc(COc3ccc(C)cc3)n2)CC1,?
CC1=C[C@@H](CN2CCC(C(N)=O)CC2)[C@H](C(C)C)C[C@H]1Cc1nnc(-c2ccc(C)cc2)o1,8.7%
O=C(c1ccc(F)cc1Cl)N1C[C@@H](CO)[C@H](c2ccncc2)C1,6.3%
CC1(C(=O)NCc2ccncc2)CCCc2cnc(Nc3ccccc3F)nc21 (configuration not stated),0.8%[70.6 µM]
C=CCNC(=O)N[C@H]1CCN(C(=O)CSC)[C@@H]1C(=O)N[C@@H](Cc1cccs1)C(N)=O,2.4%
CC(=O)Nc1cccc(C(=O)N2CCC(n3cc(-c4nc(-c5ccccc5)no4)nn3)C2)c1 (configuration not stated),-15.7%
COCCN1C(=O)[C@H]2CN(Cc3ccc(OC)c(Br)c3)C[C@H]2C1=O,1.5%
Cc1ccc(C(c2cccnc2)n2cc(-c3cncnc3)nn2)cc1C (configuration not stated),-9.9%
CC(=O)NCCNC(=O)C[C@@H]1c2nc(NC(=O)C3CCCCC3)sc2C[C@@H]2[C@](C)(CO)[C@H](O)CC[C@]21C,-2.4%
CN(Cc1cccnc1)C(=O)C1CCCCC(=O)N1C (configuration not stated),3.1%

# Already shown: 3 of the compounds above.
SMILES,hNpr1 antagonist
Cc1cccc(O[C@H]2COCCN(Cc3ccccn3)C2)n1,-0.8%[70.6 µM]
O=C(NC1CC1)C1CN(Cc2ccccc2)C(=O)N1 (configuration not stated),0.0%[70.6 µM]
CN(Cc1cncs1)Cc1ccccc1C(F)(F)F,0.0%[70.6 µM]

# Carrying on.
SMILES,hNpr1 antagonist
COCCCNC(=O)c1c(OCC2CC2)cc(=O)n2c1CCOCC2,-13.3%
CO[C@H]1C(=O)N(C2CCN(C(=O)Nc3ccccc3)CC2)[C@H]1c1ccncc1,2.2%
COc1cccc(CN2C[C@@H]3C(=O)N(CCCN4CCCC4=O)C(=O)[C@@H]3C2)c1,-10.9%
Cc1nc(CN2C(=O)OC3(CCN(C(=O)COc4ccccc4C(N)=O)CC3)C2(C)c2ccccc2)cs1 (configuration not stated),-17.1%
O=C(NCCc1csc(-c2ncccn2)n1)C1NCCc2[nH]cnc21 (configuration not stated),7.2%
Fc1ccc(-c2cc(CC3(NCc4ccc5c(c4)OCO5)COC3)no2)cc1,-10.2%[70.6 µM]
Cc1cc(C(=O)N2CC3CC(C2)[C@H]2CCCC(=O)N2C3)no1 (some centres not stated),3.6%
O=C1CN(Cc2ccc(-c3ccccc3)cc2)CCN1c1ccc(Cl)nn1,-1.8%
O=C1CCN(C(=O)c2ccccn2)CCCC(c2nc(-c3ccccc3)no2)CCN1 (configuration not stated),-1.9%
O=C1NCCCCCCN(C(=O)CCC2CCCC2)[C@H]2CCC[C@@H]12,1.1%

# Structures listed so far shown as hits in hNpr1 antagonist:
SMILES,hNpr1 antagonist
Cc1nn(-c2ccc(C(C)C)cc2)c(C)c1[C@@H]1C=C[C@@H](NC(=S)NCC(C)C)C1,28.2µM*

# Next results follow:
SMILES,hNpr1 antagonist
COc1ccc(-c2cc(-c3cccs3)nc3c(C)noc23)cc1OC,-0.5%[70.6 µM]
O=C(Cc1ccccn1)N1CCC2(CC1)Cc1ccccc1NC2=O,0.9%[70.6 µM]
O=C([C@@H]1C[C@H](F)CN1C(=O)c1ccccc1)N1CCOCC1,0.5%
COc1ccc(-c2cc(N3CCCC(NC(=O)c4cccc(F)c4)C3)n[nH]2)cc1 (configuration not stated),-5.2%
c1cc(-c2nc(C3CCOC3)nn2Cc2ccc3c(c2)OCO3)[nH]n1 (configuration not stated),7.2%
Cc1ccccc1C(=O)N[C@H]1[C@H](O)[C@H](O)C[C@@H]1c1cccnc1,5.9%[70.6 µM]
COc1ccc(CNC(=O)CC2CCCN(c3cnn(CC4CC4)c(=O)c3)C2)cc1 (configuration not stated),-5.1%
OCc1n[nH]c2c1CN(Cc1cccc(OCC(O)CN3CCOCC3)c1)CC2 (configuration not stated),-5.9%
CC(C)NC(=O)c1ccccc1OCC1CCCN(C(=O)C2CCOCC2)C1 (configuration not stated),-9.6%
Cc1ccc(S(=O)(=O)N2CC[C@H]3NC(=O)N(c4ccc(C(C)C)cc4)C(=O)[C@H]32)cc1,1.6%[70.6 µM]
COc1ccccc1-c1nc2nccc(-c3ccccc3)n2n1,6.8%
O=C(CCc1ccccc1)N1CCCCCC1CN1CCOCC1 (configuration not stated),-1.2%
c1ccc(-c2cc3c(cn2)CN(Cc2ccc4[nH]ccc4c2)CCN3)cc1,-4.5%[70.6 µM]
COC(=O)c1cn([C@H]2CO[C@H]3[C@@H]2OC[C@@H]3NC(=O)C2CC2)nn1,5.1%[70.6 µM]
Cc1nnc2n1CCC(N(C)C(=O)c1ccsc1)CC2 (configuration not stated),-0.1%
O=C(CC1CCOC2(CCN(S(=O)(=O)c3ccccc3)CC2)C1)NC1CC1 (configuration not stated),1.2%
Cc1ccc(CNC(=O)N2CC(Oc3ccc(-c4nc(C)no4)cc3)C2)cc1,-23.1%
Cc1nn(-c2ccc(F)cc2)c(Oc2ccc(F)cc2F)c1CCC(=O)NCC1CCCO1 (configuration not stated),-21.5%
COC(=O)CN1C(=O)[C@@H]2C[C@@H](O)CN2C2(CN(Cc3ccccn3)C2)C1=O,-0.8%[70.6 µM]
CN(C)c1cccc(-c2cnc(NC(=O)C3(c4ccccc4)CC3)c3c2CCO3)c1,-3.1%[70.6 µM]

# Only part of the results is shown (hit frequency here may not be typical).
